# Sa helicase inh: inhibitors of S. aureus replicative helicase, primary screen, biochemical, fluorescence unwinding readout | replicative DNA helicase (DnaC/DnaB), Staphylococcus aureus | purified S. aureus helicase, fluorescence unwinding assay; about half of the hits fall short of the stated cut | inhibition, %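 (tested at about 80 µM)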 | 120,000 compounds, 0.05% hits;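 active means both duplicates at 50% or more, or one of them with a favoured structure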;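 further: 0% = mean of negative control wells and 100% = mean of positive control wells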
# MgrA-DNA mod: S. aureus MgrA activity modulators, primary screen, biochemical, S. aureus Newman, fluorescence polarization; inhibition, %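 (about 10 µg/mL by stock and volumes)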; 84,000 compounds, 0.13% hits; MgrA-DNA binding;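 active means above 50% in either of two replicates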;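 further: 0% = protein plus DNA without compound and 100% = DNA alone without protein; higher means less MgrA bound to DNA so lower polarization; one replicate is shown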
# An asterisk follows results filed as active; · = no result given; & = joins results of further samples. These rows are one share of the data, so the mix of outcomes need not match the whole.
# Values run as follows: Sa helicase inh, MgrA-DNA mod
> O=C(Nc1ccc(C(F)(F)F)cc1)C1CCC1
    3, -0.9
> CC1=NN(c2nc3ccccc3[nH]2)C(=O)C1CCC(C)C (stereo unspecified)
    9, 6.5
> CCc1ccc(NC(=O)CN(C)S(=O)(=O)c2cccc3nsnc23)cc1
    -36, ·
> COC(CNC(=O)c1ccc2c(c1)N(Cc1ccc(Cl)cc1)CCS2)OC
    4, -0.6
> O=C(NCC(c1ccc(F)cc1)N1CCOCC1)c1ccc(C(=O)c2ccccc2)cc1 (stereo unspecified)
    -14, -0.7
> CCC(=O)NNc1nc2c(OC)ccc(OC)c2s1
    8, ·
> COC(=O)C(C)Oc1ccc(Oc2nc(Cl)ccc2Cl)cc1 (stereo unspecified)
    6, ·
> N#CNC(=NS(=O)(=O)c1ccccc1)c1ccccc1
    14, ·
> CCN1CCCC1CNC(=O)CSc1c2c(nc3ccccc13)CCCC2 (stereo unspecified)
    6, ·
> COC(=O)c1c(NC(=S)Nc2ccn(C)n2)sc2c1CCCC2
    19, 7.2
> CNC(=O)c1cn(-c2ccccc2)c(=O)c2ccccc12
    ·, -1.6
> CCCOC1(NC(=O)c2ccccc2)C(C)=CC(=O)C=C1C
    6, ·
> CC1CCCN(CC(=O)Nc2ccc(Cl)c(C(F)(F)F)c2)C1 (stereo unspecified)
    11, ·
> O=C1CCCN1c1ccc(OCc2ccc(F)cc2)cc1
    3, ·
> Cc1cc(C(=O)CSc2nnc(CN3CCCC3)o2)c(C)n1CCC(C)C
    -8, ·
> Cc1cccc(-c2nnc3sc(NC(=O)CC(C)C)nn23)c1
    3, -1.0
> CC1CCN(C(=O)c2cc(-c3ccncc3)nc3ccccc23)CC1
    4, ·
> NNC(=O)c1nsnc1-c1ccccc1O
    13, 2.0
> CCOC(=O)CN(C)S(=O)(=O)c1ccsc1C(=O)OC
    ·, 2.1
> O=C(Cc1cc(=O)[nH]c(=O)[nH]1)NCCN1CCOCC1
    8, ·
> O=C(O)COCCN1CCN(C(c2ccccc2)c2ccc(Cl)cc2)CC1 (stereo unspecified)
    10, -1.3&-3.0&0.2
> O=c1[nH]c2ccccc2nc1CCc1ccccc1
    -6, ·
> CCC(C)NC(=O)C1c2ccccc2C(=O)N(C)C1c1c[nH]c2ccccc12 (stereo unspecified)
    10, -0.1
> CSC(=NCc1sccc1COc1ccc(Cl)cc1)NC#N
    ·, 0.3
> CS(=O)(=O)N1CCN(CC(O)Cn2c3ccc(Cl)cc3c3cc(Cl)ccc32)CC1 (stereo unspecified)
    -23, ·
> CCCC(=O)Nc1nc2ccccc2s1
    17, ·
> CCNc1ccc2noc3c2c1C(=O)c1ccccc1-3
    -91, 21
> CCOc1ccc(NC(=O)C2CCCN2c2nnc(N3CCCC3=O)s2)cc1 (stereo unspecified)
    7, 0.9
> Cc1cc(NC(=O)C2=C(O)c3ccccc3S(=O)(=O)N2C)no1
    ·, 1.6&-1.5
> CCc1cc(CC)c(CO)c(CC)c1/C=N/O
    7, 2.1
> O=c1c2c3c(sc2nc2n1CCCCC2)C(O)CCC3 (stereo unspecified)
    2, 0.9
> Cc1c(Cl)cccc1NC(=O)CCN1CCC(C(N)=O)CC1
    1, -4.8
> CSc1sccc1/C=N/O
    ·, -1.9
> Cc1ccccc1-c1noc(COC(=O)CNC(=O)c2ccc(Cl)c(Cl)c2)n1
    -11, ·
> CC1CCc2c(sc(NC(=O)c3cc4nc(-c5ccco5)cc(C(F)(F)F)n4n3)c2C(N)=O)C1 (stereo unspecified)
    ·, -0.1
> Cc1nn(-c2ccc3nnc(C)n3n2)c(C)c1CCC(=O)O
    12, -1.8
> Cc1cc(SCC(=O)N(C)C)nc2ccccc12
    15, ·
> COc1ccc(NC(=O)c2cc3nc(-c4cccs4)cc(C(F)(F)F)n3n2)c(OC)c1
    ·, -1.2
> O=C(c1cn(-c2ccccc2)nc1-c1cccnc1)N1CCOCC1
    0, 0.2
> CSc1cccc(NC(=O)/C=C/c2ccccc2)c1
    9, 2.0
> CC(Oc1ccc(Br)cc1)C(=O)N1CCCCC1 (stereo unspecified)
    -1, 1.3
> Cc1ccc(N2COc3cc4c(cc3C2)OCO4)cc1C
    12, 9.2
> CC1=CC(=C2C(=O)NC(=O)NC2=O)C=C(C)N1c1ccccc1
    2, ·
> CCN1C(=O)/C(=C\c2cccs2)SC1=Nc1cc(C)on1
    3, ·
> CC(=NCc1ccccc1)c1sc2ccccc2c1O
    3, -4.9
> CSc1cccc(NC(=O)c2cccc(CS(C)(=O)=O)c2)c1
    -3, ·
> CCCN(CCC)C(=O)CCc1c(C)nc2c(c(C)nn2-c2ccc(C)cc2)c1C
    1, 2.4
> CC(=O)N(C)c1ccc(N=C2C(=O)Nc3ccc(C)c(Br)c32)cc1
    -4, -1.4
> COc1ccc(/C=C/C(=O)Nc2c3c(nc4c2CCC4)CCCC3)cc1OC
    2, 2.1
> Cn1c(CN2CCOCC2)nc2cc(NS(=O)(=O)c3ccc(F)cc3)ccc21
    -2, 0.3
> CC(C)N1C(=O)C(O)(CC(=O)c2ccccc2Br)c2ccccc21 (stereo unspecified)
    -13, -2.6
> CCOC(=O)C1=NN(c2ccccc2)C(=O)C1
    -7, -1.9
> Cc1ccccc1OCC(=O)Nc1nn2c(C)nnc2s1
    -10, ·
> Cc1cc(C)cc(-n2c(=O)c3oc4ccccc4c3n(Cc3ccc(F)cc3)c2=O)c1
    10, ·
> Cc1cccc(OCC(O)CN2C(C)(C)CCCC2(C)C)c1 (stereo unspecified)
    -1, ·
> Cc1ccc(S(=O)(=O)Nc2ccc(N=NN3CCCCC3)cc2)cc1
    6, -3.1
> Cc1ccc2c(c1)c1nc3ccccc3nc1n2CC#N
    17, ·
> CN1CCN(CCNC(=O)c2cnn(-c3ccccc3)c2-n2cccc2)CC1
    5, 1.8
> COc1cc2sc(=NC(=O)CCS(=O)(=O)c3ccccc3)n(C)c2cc1OC
    -1, ·
> Brc1ccc(OCc2cn3ccccc3n2)cc1
    12, -1.1

# Structural class: those above containing an aryl methoxy group
# Values run as follows: Sa helicase inh, MgrA-DNA mod
> CCC(=O)NNc1nc2c(OC)ccc(OC)c2s1
    8, ·
> COc1ccc(NC(=O)c2cc3nc(-c4cccs4)cc(C(F)(F)F)n3n2)c(OC)c1
    ·, -1.2
> COc1ccc(/C=C/C(=O)Nc2c3c(nc4c2CCC4)CCCC3)cc1OC
    2, 2.1
> COc1cc2sc(=NC(=O)CCS(=O)(=O)c3ccccc3)n(C)c2cc1OC
    -1, ·

# The results go on.
# Values run as follows: Sa helicase inh, MgrA-DNA mod
> CCc1nnc(NS(=O)(=O)c2ccc(NC(=O)CCCN3C(=O)c4cccc5cccc(c45)C3=O)cc2)s1
    ·, -1.6
> CN(C)c1ccc(C2NCC(CCl)O2)cc1 (stereo unspecified)
    -5, -0.6
> CCCc1ccc(SC(=O)N(C)C)cc1O
    ·, 0.0
> N#CCOc1nc(-c2ccccc2)cc(-c2ccco2)c1C#N
    ·, -0.7
> CN(C)S(=O)(=O)c1ccc2oc3nnc(SCC#N)n3c2c1
    -3, ·
> CC(=O)N1CCN=C1SCc1ccccc1
    5, 0.6
> Cc1c(CC(=O)O)sc2ccc(Cl)cc12
    ·, 1.1
> CCOC(=O)c1cc(=O)c2ccc(OCC(=O)Nc3ccc4c(c3)OCCO4)cc2o1
    -12, ·
> COC(=O)c1sc2nc(C)cc(C)c2c1N
    16, -3.4
> CCOC(=O)Cc1csc(=S)n1-c1ccc(OC)cc1
    -21, ·
> CCN1C(=O)C(CC(=O)Nc2ccc(C(=O)OC)cc2)N(CCN2CCOCC2)C1=S (stereo unspecified)
    4, -1.6
> c1ccc2sc(SN3CCOCC3)nc2c1
    -9, ·
> CC(C)N1C(=O)C(O)(c2nnc(-c3ccccc3)o2)c2ccccc21 (stereo unspecified)
    2, ·
> CCN(CCN)c1ccc2c(=O)[nH][nH]c(=O)c2c1
    25, ·
> CC(C)(C)c1cc2nc(N)nc(N)n2n1
    ·, 3.8

# An excerpt of these results, bar-delimited:
molecule | Sa helicase inh | MgrA-DNA mod
CCOC(=O)Cc1csc(=S)n1-c1ccc(OC)cc1 | -21 | ·
CCN1C(=O)C(CC(=O)Nc2ccc(C(=O)OC)cc2)N(CCN2CCOCC2)C1=S (stereo unspecified) | 4 | -1.6
c1ccc2sc(SN3CCOCC3)nc2c1 | -9 | ·
CC(C)N1C(=O)C(O)(c2nnc(-c3ccccc3)o2)c2ccccc21 (stereo unspecified) | 2 | ·
CCN(CCN)c1ccc2c(=O)[nH][nH]c(=O)c2c1 | 25 | ·
CC(C)(C)c1cc2nc(N)nc(N)n2n1 | · | 3.8

# The list goes on:
# Values run as follows: Sa helicase inh, MgrA-DNA mod
> CN(C)CCN1C(=O)c2ccccc2Sc2ccccc2S1(=O)=O
    ·, -3.6
> Cc1cc(C)nc(N2CCC(NC(=O)Cc3cccs3)CC2)n1
    23, ·
> Oc1ccccc1C1=NNC(O)(C(F)(F)F)C1 (stereo unspecified)
    4, 0.9
> NCC12CC3CC(C1)CC(C(=O)O)(C3)C2
    -20, ·
> O=C(O)C1CCC(CNCc2ccncc2)CC1 (stereo unspecified)
    -3, 0.5
> CCCNC(=O)C1=NS(=O)(=O)c2ccccc2N1
    8, ·
> COC(CN(C)C(=O)c1c[nH]c2ccc(S(=O)(=O)Nc3ccccc3F)cc2c1=O)OC
    3, ·
> Cc1cc2nc(N(C)C)c3ccccc3n2n1
    -7, ·
> O=C(Cc1ccc(S(=O)(=O)N2CCOCC2)s1)Nc1ccccc1Br
    -12, ·
> CCc1ccc(OC(C)C(=O)Nc2cc(-c3ccc(C)cc3)no2)cc1 (stereo unspecified)
    -11, ·
> Cc1ccc(-c2nn3c(=O)c4ccccc4nc3c3ccccc23)cc1
    8, 2.4
> COc1cc(C=C2C(=O)N(C)C(=O)N(C)C2=O)ccc1OCCOc1ccc([N+](=O)[O-])cc1
    ·, -0.8
> CC(=O)OC[C@H]1OC=C[C@@H](OC(C)=O)[C@@H]1OC(C)=O
    -13, ·
> COc1ccc(C(C(=O)Nc2ccc(C(C)C)cc2)N(Cc2ccco2)C(=O)c2cnccn2)cc1 (stereo unspecified)
    11, -0.6
> COc1ccc(/C=N/C2=NNC(c3ccc(OC)cc3)=CS2)cc1
    -20, ·
> CCC(C)(C)C(=O)Nc1nnc(C(F)(F)F)s1
    -10, 1.6
> CCc1nn(CC(=O)OC)c(=O)c2cc3sc(C)cc3n12
    6, -1.1
> COc1ccccc1N1CCN(CCCCNC(=O)c2ccc3ccccc3c2)CC1
    ·, 0.1
> CC1CCCCN1Cc1c(O)ccc2cc(-c3nc4ccccc4n3C)c(=O)oc12 (stereo unspecified)
    -14, ·
> Cn1c(SCc2ccc(Cl)c(Cl)c2)n[nH]c1=S
    ·, -0.3
> COc1cccc(NC(=O)CSC2=Nc3ccccc3C3=NC(C(C)C)C(=O)N23)c1 (stereo unspecified)
    5, 0.7
> CCOc1ccc(Cc2nc3ccccc3[nH]2)cc1
    20, ·
> CC1CCCC(C)N1NC(=O)c1ccc2c(c1)SC1=NS(=O)(=O)CCN12 (stereo unspecified)
    22, ·
> CC1CCCC(NC(=O)c2n[nH]c(=O)c3ccccc23)C1C (stereo unspecified)
    9, ·
> CCN1CCCC1CNC(=O)Nc1ccc(Cl)c(Cl)c1 (stereo unspecified)
    10, ·
> O=C(Oc1ccccc1O)c1ccccc1
    -3, ·
> CC(C)(C)C(=O)NNc1ncnc2sccc12
    6, ·
> O=C(/C=C/c1ccccc1)C1=C(O)C(=O)N(CCO)C1c1ccc2c(c1)OCO2 (stereo unspecified)
    -3, 2.8
> COc1ccc(C2CCN(C(=O)N(C(C)C)C(C)C)CC2)cc1
    14, -4.2
> c1ccc(CCc2nc3ccccc3[nH]2)cc1
    18, -0.3
> NC(=O)c1cc(NC(=O)/C=C/c2cccc(F)c2)cc(C(N)=O)c1
    1, ·
